Source: PubChem BioAssay (National Center for Advancing Translational Sciences (NCATS))
AmpC nodet inh: inhibitors of E. coli AmpC beta-lactamase without detergent | AmpC nitrocefin hydrolysis, absorbance 480 nm, no detergent; potencies from a single point are estimates | Potency, µM (highest dose often 28.7 µM), inactives show at the top dose activity change, negative = inhibition | 71,000 compounds, 1.8% hits; active = falling curve, for most hits resting on a single point; inconclusive = weak or doubtful change; inactive = flat or rising curve; further: % of control where 0% means no effect; about half of the hits show no inhibition at the top dose; a quarter of the inactives give rising signals
Target sequence (P00811 whole entry, looked up): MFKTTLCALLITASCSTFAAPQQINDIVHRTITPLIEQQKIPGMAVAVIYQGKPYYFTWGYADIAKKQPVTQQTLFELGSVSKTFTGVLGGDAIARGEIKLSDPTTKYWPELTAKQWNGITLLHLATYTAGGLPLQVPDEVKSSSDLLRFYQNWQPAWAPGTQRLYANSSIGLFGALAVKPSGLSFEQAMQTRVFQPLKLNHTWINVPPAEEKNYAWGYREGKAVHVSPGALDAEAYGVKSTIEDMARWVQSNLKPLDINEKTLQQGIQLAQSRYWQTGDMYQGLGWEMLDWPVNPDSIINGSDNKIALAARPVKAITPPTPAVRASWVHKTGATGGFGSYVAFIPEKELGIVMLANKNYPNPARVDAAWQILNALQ
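AmpC in 20 mM phosphate buffer pH 7.0 was preincubated 15 min at room temperature with compounds. Nitrocefin (800 uM stock) was then added and hydrolysis followed at 480 nm every 20 s for 4 min.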
An asterisk follows results filed as active; [ ] = another dose, or the depositor's remark. Potency means the concentration at half of the fitted maximal effect.

SMILES | AmpC nodet inh
Cc1ccccc1C(=O)NC1CCN(CC(=O)Nc2nccs2)CC1 | 2%
Cc1ccc(CCN2C(=O)CCC2(C)C(=O)NC2CCCC2)cc1 (centres undefined) | 41%
Cc1c(Cl)cccc1NC(=O)CCCCCN1C(=O)CCC1=O | 14%
COC(=O)c1ccc(C(NC(=O)OCc2ccccc2)/C(=C/[C@@H](C)C(=O)NCc2cc(C)n(C)n2)c2cccnc2)cc1 (some centres undefined) | -4%
CCOc1ccc2nc(NCCNC(=O)Nc3ccccc3)c(C#N)cc2c1 | 19%
COc1cc(-n2nnnc2SCC(=O)N2CCN(c3ccc(F)cc3)CC2)c(OC)cc1Cl | 56%
CCN1CCN(c2nc3c(c(=O)n(C)c(=O)n3C)n2Cc2cccc3ccccc23)CC1 | 108%
CCN1C(=O)c2cccc3c(S(=O)(=O)NCCCN4CCOCC4)ccc1c23 | 12%
COCCOC(=O)c1ccccc1C(=O)OCCOC | 6%
CCOc1ccccc1-n1nnnc1SCC(=O)NC(=O)NCc1ccco1 | -16%
CCC(=O)N(Cc1cc2cc(C)c(C)cc2[nH]c1=O)C1CCCCC1 | 36%
COc1cccc(C2N(c3cccc(Cl)c3)C(=O)C3CCCN32)c1OC (centres undefined) | 94%
CCOC(=O)c1sc(C)nc1C1CCN(C(=O)OCC)CC1 | 59%
O=C(OCc1nnc(-c2ccccc2)o1)c1ccc2c(c1)C(=O)N(CCc1ccccc1)C2=O | 1%
CC12CN3CC(C)(CN(C1)P3(=O)Oc1ccccc1)C2=O (centres undefined) | -2%
Cc1ccc(C)c(N2CCN(c3cc(C)nc4nnnn34)CC2)c1 | 17%
O=C(O)c1nn(-c2ccccc2-c2n[nH]c(=O)[nH]c2=O)c(=O)[nH]c1=O | 13%[5.75 µM]
Cc1cc(C)n(C(=O)C2CCCN2S(=O)(=O)c2ccc(Cl)cc2)n1 (centres undefined) | 33%
CCCS(=O)(=O)N1CCC(C(=O)NCCCOC)CC1 | -15%
Cc1ccc(C)c(N(C)C(=O)COc2cc(=O)n(C)c3ccccc23)c1 | 114%
O=C(CN(Cc1ccccc1C(F)(F)F)C(=O)CNC(=O)c1ccco1)NC1CCCC1 | 50%
COc1ccccc1N1CCN(c2nc3ccccc3nc2C(C#N)C(=O)OC(C)C)CC1 (centres undefined) | 63%
Cc1c(NC(=O)CSc2nnc(-c3ccco3)n2-c2ccccc2)c(=O)n(-c2ccccc2)n1C | 16%
CCc1ccc(Cn2nnc(C(=O)Nc3ccc(OC)cc3OC)c2N)cc1 | 4µM*[single pt active]
CC(=O)NC(C)C12CC3CC(CC(C(=O)O)(C3)C1)C2 (centres undefined) | -7%

(continued)
SMILES | AmpC nodet inh
COc1ccc(C2C3=C(N=C4SCC(=O)N42)c2ccccc2CC3)cc1 (centres undefined) | 16%
O=C1CC(N2CCN(c3ccc(C(=O)c4ccc(F)cc4)cc3)CC2)C(=O)N1 (centres undefined) | 68%
Cc1ccc2nc3sc(C(=O)N4CCOCC4)c(N)c3cc2c1 | 58%
CCOC(=O)c1c(C)nc2cc(C)ccn12 | 4%
O=C(Nc1nncs1)c1ccccc1Br | -14%
CC(O)COC(C)(C)C (centres undefined) | -6%
O=C(CCCCC(=O)NCc1cccs1)NCc1cccs1 | -7%
COc1ccccc1Nc1ncc(C(=O)N2CCC(C(N)=O)CC2)c2ccccc12 | 20%
COCC(N)(c1ccccc1)c1nc2ccccc2n1C (centres undefined) | 4%
Cc1ccc(C2=C(Cl)C(=O)C(c3ccc(C)cc3)=C(Cl)C2=O)cc1 | -4%[5.75 µM]
Cc1ccc(NC(=O)c2ccc(NS(=O)(=O)c3c(C)noc3C)cc2)cc1C | -15%
C[C@@H]1c2ccccc2Cn2cc3c(c21)C(=O)c1cccc(OP(=O)(O)OCc2ccccc2)c1C3=O | 13%[5.75 µM]
O=C(/C=C/Nc1cccc(O)c1)c1ccccc1 | -17%
CCC1(C)NC(=O)N(CC(=O)Nc2sc3c(c2C(N)=O)CCC3)C1=O (centres undefined) | 6%
O=C(CCCCn1c(=S)[nH]c2ccsc2c1=O)NCc1ccco1 | -12%
COCCn1c(SCC(=O)Nc2ccc3c(c2)OCCO3)nnc1-c1c[nH]c2ccccc12 | 2%
Cc1nn(-c2ccc(Cl)cc2)c2[nH]c(=O)c(CNCc3ccc4c(c3)OCO4)cc12 | 12%
O=C(Nc1nc2ccccc2n1CCOc1ccccc1)c1ccco1 | 42%
Cc1ccc(S(=O)(=O)NC(=O)N2CCCC(C)(C)C2)cc1 | -8%
CS(=O)(=O)c1ccc2nc(NC(=O)CN3CCN(Cc4ccccc4)CC3)sc2c1 | 45%
CCCSc1ccc2nc(NC(=O)OC)[nH]c2c1 | -7%[12.8 µM]
O=C1NC(Cc2c[nH]c3ccccc23)C(=O)N1CCOc1ccc(F)cc1 (centres undefined) | 6%
COc1ccc(-n2c(Cc3cccn3C)nnc2SCC(N)=O)cc1 | 44%
CC(C)(SCc1ccccc1)[C@H](N)C(=O)O | 5%[5.75 µM]
O=C(NC1CCCCCC1)c1c(O)c2cccc3c2n(c1=O)CCC3 | -11%

(list continues)
SMILES | AmpC nodet inh
CCCCn1cnc2c(SC)ncnc21 | -6%[5.75 µM]
CCOC(=O)c1cc2sc(C)cc2n1C(C)C(=O)OCC (centres undefined) | 49%
O=C(CCc1nc(-c2ccccc2F)no1)NCc1ccco1 | -2%
O=C(CCN1CCN(C(=O)c2ccco2)CC1)Nc1ccc(F)cc1 | 0%
Cc1ccccc1Cn1nc(C)c(NC(=O)c2cc3n(n2)C(C(F)F)CC(C(F)F)N3)c1C (centres undefined) | 95%
COc1ccccc1C(=O)NC(C)c1nc2ccccc2[nH]1 (centres undefined) | -16%
O=C(CSc1nnc(Cc2cc(=O)[nH]c(=O)[nH]2)n1-c1ccccc1)N1CCCc2ccccc21 | 28%
CCCCS(=O)(=O)NC1=NCN(CCO)CN1 | -2%
O=C(Nc1ccccc1C(=O)N1CCN(Cc2ccccc2)CC1)c1ccccn1 | 64%
CC(C)[C@@H]1NC(=O)N(c2ccc(Oc3ccccc3)cc2)C1=O | 21%
COc1cc(CN2CCC(C(=O)NC3CCCC3)CC2)cc(Br)c1O | -6%
O=C(CN1C(=O)c2cccc3cccc1c23)N1CCN(c2ccccc2)CC1 | 9%
Cc1cccc(Cn2c(SCCN3CCOCC3)nc3c2c(=O)n(C)c(=O)n3C)c1 | 122%
C=CCSc1nnc(-c2ccncc2)n1-c1ccc(OCC)cc1 | 71%
O=C(C1CCC(CNc2nc(=S)[nH]c3ccccc23)CC1)N1CCN(c2ccccn2)CC1 (centres undefined) | 45%
COc1ccc(C(C(=O)NC2CCCC2)N(CCN(C)C)C(=O)c2snc(C(N)=O)c2N)cc1 (centres undefined) | -1%
O=C1OCc2cc(NC(=O)C3CCCCC3)ccc21 | -12%
C=CCN(CC=C)S(=O)(=O)c1ccc2nsnc2c1 | -1%
CCN1c2nc3c(C)cccn3c(=O)c2CC2(C(=O)N(C)C(=O)N(C)C2=O)C1C (centres undefined) | 27%
N#CCCn1cnc2ccccc21 | -4%
O=C(CCC(=O)c1cccs1)OCC(=O)N1CCN(S(=O)(=O)c2ccccc2)CC1 | 47%
Cc1ccc(S(=O)(=O)N(C)c2ccc(C(=O)N3CCC(C(N)=O)CC3)cc2)cc1 | 17%
C=CCn1c(=N)n(CC(=O)O)c2ccccc21 | -4%
CCCCCCn1c(C(C)NC(=O)c2ccco2)nc2ccccc21 (centres undefined) | 97%
O=C1CC(Nc2ccc(N3CCOCC3)cc2)C(=O)N1c1ccccc1F (centres undefined) | 21%

15 entries from above, tab-delimited.
Structure	AmpC nodet inh
COc1cc(CN2CCC(C(=O)NC3CCCC3)CC2)cc(Br)c1O	-6%
O=C(CN1C(=O)c2cccc3cccc1c23)N1CCN(c2ccccc2)CC1	9%
Cc1cccc(Cn2c(SCCN3CCOCC3)nc3c2c(=O)n(C)c(=O)n3C)c1	122%
C=CCSc1nnc(-c2ccncc2)n1-c1ccc(OCC)cc1	71%
O=C(C1CCC(CNc2nc(=S)[nH]c3ccccc23)CC1)N1CCN(c2ccccn2)CC1 (centres undefined)	45%
COc1ccc(C(C(=O)NC2CCCC2)N(CCN(C)C)C(=O)c2snc(C(N)=O)c2N)cc1 (centres undefined)	-1%
O=C1OCc2cc(NC(=O)C3CCCCC3)ccc21	-12%
C=CCN(CC=C)S(=O)(=O)c1ccc2nsnc2c1	-1%
CCN1c2nc3c(C)cccn3c(=O)c2CC2(C(=O)N(C)C(=O)N(C)C2=O)C1C (centres undefined)	27%
N#CCCn1cnc2ccccc21	-4%
O=C(CCC(=O)c1cccs1)OCC(=O)N1CCN(S(=O)(=O)c2ccccc2)CC1	47%
Cc1ccc(S(=O)(=O)N(C)c2ccc(C(=O)N3CCC(C(N)=O)CC3)cc2)cc1	17%
C=CCn1c(=N)n(CC(=O)O)c2ccccc21	-4%
CCCCCCn1c(C(C)NC(=O)c2ccco2)nc2ccccc21 (centres undefined)	97%
O=C1CC(Nc2ccc(N3CCOCC3)cc2)C(=O)N1c1ccccc1F (centres undefined)	21%

The listing continues:
SMILES | AmpC nodet inh
COc1ccc(OC)c2[nH]c(=O)c(CCNC(=O)C3CCCCC3)cc12 | 23%
COc1cc2c3cc1Oc1cc(ccc1O)C[C@@H]1c4c(cc(OC)c(O)c4Oc4cccc(c4)C[C@H]3N(C)CC2)CC[N+]1(C)C | 5%[12.8 µM]
CCCOc1cccc(C(=O)Nc2cccnc2)c1 | 7%
CC12CN3CC(C)(CN(C1)C3c1cccs1)C2 (centres undefined) | -16%
CCOc1ccc(C(=O)O)cc1OC | -4%
CN1CCN(C(=O)c2ccccc2-c2nc(-c3ccccc3)no2)CC1 | 29%
COc1cccc(Cn2c(=O)c(-c3cccs3)nc3cnc(N4CCOCC4)nc32)c1 | 6%
O=C(NCN1CCN(c2ccccc2F)CC1)c1ccccc1 | -7%
CCOC(=O)N1CCN(C(=O)Cn2nc(-c3ccc(Cl)cc3)ccc2=O)CC1 | 90%
CCCCNC(=O)c1cc2c(=O)n3cccc(C)c3nc2n(CCN2CCOCC2)c1=N | 19%
CC(C)N(C=O)C1(C(=O)NC2CCCCC2)CCCCC1 | 5%
ON=C1/C(=N\O)CC2(C/C1=N/O)OCCO2 | -8%
CCN(CC)C(c1ccc(F)cc1)c1nnnn1C1CCCCC1 (centres undefined) | 25%
O=C(O)[C@H]1[O][Sb][O][C@@H](C(=O)O)C1O (some centres undefined) | -2%[5.75 µM]
O=C(c1ccncc1)N1CCC[C@@]2(CCN(c3cccc(-c4ccccc4)c3)C2)C1 | 156%
O=C(O)c1ccc([N+](=O)[O-])cc1 | -14%
CCCC(NS(=O)(=O)c1ccc(Br)cc1)C(=O)O (centres undefined) | -5%
CCCN1C(=O)C(O)(CC(=O)c2ccc3c(c2)OCCO3)c2ccccc21 (centres undefined) | 11%
COc1cccc(-c2nc(CS(=O)(=O)CC(=O)Nc3cccc(C)c3C)c(C)o2)c1 | 28%
CC(C)N(Cc1nc(-c2ccc(Cl)cc2)no1)C(=O)C12CC3CC(CC(C3)C1)C2 | 4%
Cc1ccc(N2CC(C(=O)NC3CCSC3=O)CC2=O)cc1 (centres undefined) | -6%
Cc1cn([C@@H]2C[C@H](N=[N+]=N)[C@H](CO)O2)c(=O)[nH]c1=O | 2%[12.8 µM]
CCn1c(SCC(=O)N2CCCC2)nc2c1c(=O)n(C)c(=O)n2C | 11%
Cc1ccc(SCCN2C(=O)NC(C)(C)C2=O)cc1 | -2%
Cn1c(NCc2c[nH]c3ccccc23)nc2ccccc21 | -3%

(list continues)
SMILES | AmpC nodet inh
CC1CCN(S(=O)(=O)c2cccc(-c3nnc(-c4cccnc4)o3)c2)CC1 | 54%
O=C(c1cccs1)C1CN2CCC1CC2 (centres undefined) | -5%
Cc1ccc(CNC(=O)CCCOc2cc(=O)n(C)c3ccccc23)o1 | 69%
CC(NC(=O)C1CC=CCC1C(=O)O)C1CC2CCC1C2 (centres undefined) | 5%
CC1=C(C(=O)OC(C)C)C(c2cccs2)n2ncnc2N1 (centres undefined) | 4µM*[single pt active]
c1ccc2c(c1)CCN(c1nc3cc4c(cc3s1)OCCO4)C2 | 29%
O=C(Cn1nnc2ccccc2c1=O)NCc1ccco1 | -5%
O=C1CC(c2ccc(F)cc2)Cc2nc(NCc3ccco3)ncc21 (centres undefined) | -6%
O=C(O)C1CCCCC1C(=O)NCc1ccc(F)cc1 (centres undefined) | -1%
COc1cc(NC(=O)c2ccco2)c(OC)cc1NC(=O)CSc1ncc(-c2ccc(F)cc2)[nH]1 | 42%
COc1ccc2[nH]cc(CCNc3ccnc(-c4ccccc4Cl)n3)c2c1 | -10%
O=C(CCN1CCOCC1)Nc1ccc2c(c1)N(C(=O)CN1CCOCC1)c1ccccc1CC2 | 69%
CNc1nnc(-c2cccc(N(C)C)c2)s1 | -8%
CCC1(CC)C(=O)NC(=NCCc2c[nH]c3ccccc23)NC1=O | 5%
Nc1nc(-c2c[nH]c3ccccc23)cs1 | -15%
COc1cccc(/C=N/n2cnnc2)c1OCc1ccccc1 | 10%
O=c1c(CCc2ccccc2)nc2cnc(N3CCNCC3)nc2n1C1CC1 | 39%
CCOC(=O)Cc1nn2c(=O)cc(C)nc2s1 | -4%
COC(=O)[C@@H](NC(=O)NCc1cccc(OC)c1)C(C)C | -3%
CC(=O)N1CCN(Cc2nc3cc(NS(C)(=O)=O)ccc3n2C)CC1 | 14%
Cn1c(SCC(=O)Nc2ccc3c(c2)OCO3)nnc1-c1cnccn1 | -3%
COc1ccc(NC(=O)CN2CCN(c3ccc(F)cc3)CC2)cc1Cl | 72%
CCCCc1nccn1CCn1ccnc1CCCC | -15%

An excerpt, so the mix of outcomes need not match the whole.
